Screens as filed in PubChem BioAssay.
MT1-MMP act inh – blocks activation of human MT1-MMP; GFP/RFP ratio change, % at 20 µM; P50281; AID 651647; 0.061% of 360,000 active; HT1080 RFP-PRO-GFP cells, GFP/RFP ratio fluorescence, overnight; percent of plate control window, DMSO zero;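 active = GFP/RFP ratio change of at least 30% with cell ATP level not reduced by more than half and red fluorescence within 50% of control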; note: strong numbers were not always called active
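Assay system: RFP-PRO-GFP reporter HT1080 cells; read-out basis: GFP/RFP fluorescence ratio; benchmarks: DMSO wells and RFP-L50D-GFP cells; doses: 20 µM single dose, 1% DMSO; schedule: overnight cell settling, then overnight compound exposure, 37 °C, 5% CO2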
HIV Env fusion – blocks HIV Env-driven cell-cell fusion; HeLa-JRFL Env/CEM21 cell fusion, luciferase; inhibition, % at 12.3 µM; 1.1% of 360,000 active;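 active = mean replicate inhibition score of at least 50 and every replicate individually at or above 50; inconclusive = only one of the two criteria met; inactive = mean below 50 and not all replicates reaching 50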;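 note: 0% = plate neutral controls and 100% = maraviroc near 300 nM; one replicate is shown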
MT1-MMP act inh RFP – also measured in MT1-MMP act inh; calls as there; RFP signal change, %; measured here: RFP expression control read;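 0 = vehicle wells; hits needed this value within 50% of zero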
* = called active by the depositor; ? = inconclusive. These rows are one share of the data, so the mix of outcomes need not match the whole.

Order of results – MT1-MMP act inh	HIV Env fusion	MT1-MMP act inh RFP
- Cc1cccc(C)c1NC(=O)C(c1ccccc1)n1c(=O)c(-c2cc3ccccc3[nH]2)nc2ccccc21 (stereo not drawn)
 : -3	-7	-7
- COc1ccccc1CCNC(=O)c1c(N)[nH]c(C(=O)c2ccccc2)c1-c1ccc(Br)cc1
 : 2	-5	-9
- COC(=O)c1ccc(COc2cccn3c(N(C)C(=O)CCC4CCCC4)c(C)nc23)cc1
 : -4	?	-23
- CCCCCNC(=O)C(C1CC1)n1c(=O)c(-c2cc3ccccc3[nH]2)nc2ccccc21 (stereo not drawn)
 : 2	24	8
- CCOC(=O)[C@]12CCC=C1N(Cc1ccccc1)C(=O)[C@H](CC(=O)NCc1cccc(C(F)(F)F)c1)C2
 : 3	-101	-5
- O=[N+]([O-])c1cc(S(=O)(=O)Oc2ccccc2)ccc1Cl
 : 13	2	-6
- COCCCNC(=O)C[C@@H]1C[C@@]2(C(=O)OC)CCCCC=C2N(CCc2ccc(OC)c(OC)c2)C1=O
 : -3	7	2
- O=C(O)c1ccc(N=C2c3ccccc3-c3ccccc32)cc1
 : 1	-4	-1
- COc1cccc(NC(=O)CCC2CCN(C(=O)C(OC)c3ccccc3)CC2)c1 (stereo not drawn)
 : 2	21	-3
- CC(=NNc1nc2ccccc2s1)c1ncccn1
 : -6	46	-9
- CNc1ncnc2c1ncn2[C@H]1CN(Cc2cccc3ccccc23)C[C@@H](CO)O1
 : 1	-59	3
- CC1=C(C(=O)N2CCOCC2)CC(CC(=O)NCCCN(C)C)C(=O)N1CCCN1CCCC1=O (stereo not drawn)
 : 8	-7	5
- CC(=O)C[C@@H]1OC[C@H](C(C)C)N1S(=O)(=O)c1ccc(C)cc1
 : 3	-27	0
- O=C(Nc1ccc2c(c1)OCCO2)C1c2ccccc2OCC(=O)N1C1CC1 (stereo not drawn)
 : 1	3	0
- Cc1cccc(-n2ncc3c2CCCC3NC(=O)c2cccs2)c1C (stereo not drawn)
 : 9	1	-27
- CC(C)C[C@@H](COCc1ccc(C(F)(F)F)cc1)N1CCN(C(=O)c2ccc(C(F)(F)F)cc2)CCC1=O
 : -5	46	-13
- CCCCC1Cc2[nH]c(=S)[nH]c(=O)c2C(c2cccc3ccccc23)O1 (stereo not drawn)
 : 5	2	-6
- CCCCNC(=O)C[C@@H]1C[C@@]2(C(=O)OCC)CCCC=C2N(Cc2ccccc2)C1=O
 : 11	-2	2
- COc1ccc(NC(=O)COC(=O)CC2CCCC2)cc1
 : 4	23	0
- CN(C)CCN1C(=O)c2cccc3cc([N+](=O)[O-])cc(c23)C1=O
 : -52	51	-4
- COc1ccc(CCN2C(=O)c3ccccc3C2c2nnnn2Cc2ccccc2)cc1OC (stereo not drawn)
 : 2	3	-1
- COc1ccc(Cn2cc(CN3CC(N4CC=CC4)CS3(=O)=O)nn2)cc1 (stereo not drawn)
 : 2	5	5
- Nc1cccc2c1C(=O)c1ccc(Cl)cc1C2=O
 : 11	-20	32
- CC(C)N(C)c1ncnc2c1ncn2[C@H]1CN(CCc2ccccc2)C[C@@H](CO)O1
 : 0	0	3
- O=C1NC[C@H](Cc2ccc(O)cc2)N(C[C@@H]2CCCN2C[C@H](Cc2ccc(O)cc2)N2C[C@H](Cc3ccccc3)N(CCc3ccccc3)C(=O)C2=O)C1=O
 : 0	5	2
- CCCCNC(=O)C(NC(=O)c1ccc(-c2ccccc2)cc1)C(=O)c1ccccc1 (stereo not drawn)
 : 0	-3	2
- O=C1NC[C@H](CCCCN2CCN(CC3CCCCC3)C(=O)C2=O)N(CCC2CCCCC2)C1=O
 : 2	-5	7
- N#Cc1c(NC(=O)COC(=O)C2=COCCO2)sc2c1CCCC2
 : -3	32	-1
- O=C(Cc1ccccc1)NC(CSSCC(NC(=O)Cc1ccccc1)C(=O)O)C(=O)O (stereo not drawn)
 : -2	-3	-3
- [O-]C(=C(C(=S)Nc1cccc2ccccc12)[n+]1cccc(CO)c1)c1ccc(Cl)s1
 : 5	13	11
- COC(=O)[C@]12CCCCC=C1N(Cc1ccco1)C(=O)[C@H](CC(=O)N1CCCCC1)C2
 : 1	-4	10
- CCCCCCN1CCN(C2CN(Cc3cn(CCCCCC)nn3)S(=O)(=O)C2)CC1 (stereo not drawn)
 : 4	22	-1
- O=C1NC(=O)C2(N1)c1ccccc1-c1ccccc12
 : 2	-12	8
- CCc1ccc2c(COC(=O)C3CC(=O)N(CCc4ccccc4)C3)cc(=O)oc2c1 (stereo not drawn)
 : -2	-6	2
- CC(C)(C)N1C(=O)c2ccccc2NC(=O)C1C(=O)Nc1ccc2c(c1)OCCO2 (stereo not drawn)
 : 4	-1	5
- CC1CCCCC1NC(=O)CCn1c(=S)[nH]c2ccccc2c1=O (stereo not drawn)
 : 0	10	-5
- Cc1cccc(C)c1NC(=O)C(c1ccncc1)n1c(=O)c(-c2cc3ccccc3[nH]2)nc2ccccc21 (stereo not drawn)
 : -14	-3	-9
- Cc1cccc(C)c1NC(=O)C1(C)CSCC(=O)N1Cc1cccc(F)c1 (stereo not drawn)
 : 8	-16	6
- CCOC(=O)[C@]12CCCC=C1N(Cc1ccc(Cl)cc1Cl)C(=O)[C@H](CC(=O)N1CCN(C(=O)c3ccco3)CC1)C2
 : 1	11	-9
- Cc1cccc(C)c1NC(=O)NS(=O)(=O)c1ccccc1
 : 6	-4	3
- CC(=O)Nc1cccc2c1Cc1cc([N+](=O)[O-])ccc1-2
 : -4	9	-1
- CC(=O)Nc1ccc2c(c1)[nH]c(=O)c1ccccc12
 : 6	-15	0
- COc1ccccc1NC(=O)COC(=O)CNC(=O)C1CCCCC1
 : 0	-14	-1
- COC(=O)C[C@@H]1OC[C@H](Cc2ccccc2)N1S(=O)(=O)c1ccc(C)cc1
 : 0	7	-7
- COc1ccc(-c2c(C(=O)c3ccccc3)[nH]c(N)c2C(=O)NC2CC2)cc1OC
 : 7	-21	5
- O=C1NC[C@H](CCCCN2CCN(CCC3CCCCC3)C(=O)C2=O)N(CCc2ccccc2)C1=O
 : 2	26	3
- CCCCNC(=O)C1c2ccccc2OCC(=O)N1Cc1ccc2c(c1)OCO2 (stereo not drawn)
 : 6	10	7
- CCN(CC)S(=O)(=O)c1ccc(N2CC(C(=O)NCCc3c[nH]c4ccccc34)CC2=O)cc1 (stereo not drawn)
 : 1	12	-8
- O=C(C[C@@H]1CC[C@@H]2[C@H](COC[C@@H](O)CN2Cc2cc(F)ccc2F)O1)NCc1ccc(F)cc1
 : 0	-17	-4
- CC(C)(C)OC(=O)Nc1ccccc1-n1nnnc1C(C(=O)c1ccccc1)N1CCN(c2ccccn2)CC1 (stereo not drawn)
 : -3	-12	0
- CC(C)[C@H](NC(=O)OCc1ccccc1)C(=O)OCC(=O)N1C(C)CCCC1C (stereo partly drawn)
 : -3	-3	-2
- FC(F)(F)c1nc2nc(Cl)c(Cl)nc2[nH]1
 : 2	4	6
- COCCNC(=O)C1CCCN(C(=O)c2cc(C(C)(C)C)nn2C)CC1 (stereo not drawn)
 : -2	-49	2
- COc1ccc(CCn2c(=N)c(C(=O)NCc3ccco3)cc3c(=O)n4ccccc4nc32)cc1OC
 : -3	-9	-1
- O=C(OC1CC2CC1[C@H]1CCCCN1C2=O)N1CCN(S(=O)(=O)c2ccccc2)CC1 (stereo partly drawn)
 : -3	1	-1
- CCOc1ccc2nc(S(=O)(=O)NC(=O)C3(C)CCN3C(=O)c3cc(C)n(C)n3)sc2c1 (stereo not drawn)
 : 1	-98	2
- O=C(NC1CCCCC1)C(c1cc2ccccc2o1)n1c(=O)c(-c2ccco2)nc2ccccc21 (stereo not drawn)
 : -6	9	8
- COc1cc(C)ccc1S(=O)(=O)NC(=O)C1(C)CCN1C(=O)Cc1ccc(Cl)cc1Cl (stereo not drawn)
 : 7	-18	7
- COc1ccccc1/C=C/C(=O)OCC(=O)N1c2ccccc2CC1C (stereo not drawn)
 : 0	12	0
- C#CCNC(=O)C[C@@H]1C[C@@]2(C(=O)OC)CCCCC=C2N(Cc2cccc3ccccc23)C1=O
 : -6	13	-9

Remaining list, next part.
Order of results – MT1-MMP act inh	HIV Env fusion	MT1-MMP act inh RFP
- O=C(NCc1ccncc1)[C@@H]1CCCN1C(=O)[C@@H]1CCCN1C(=O)c1cccc2ccccc12
 : 4	16	1
- CC1(c2nc3ccccc3[nH]2)CCC2=Nc3ccccc3CN21 (stereo not drawn)
 : 0	6	6
- c1ccc(-c2nc(NCC3CC3)nc3ccsc23)cc1
 : -1	-15	0
- CN(C)CCNC(=O)c1cccc2ccc(-c3ccc(-c4ccccc4)cc3)nc12
 : 7	-49	2
- O=C(NCCCN1CCOCC1)c1c(-c2ccccc2)oc2c1C(OCCCCCO)CCC2 (stereo not drawn)
 : 2	-5	1
- Cc1ccc(S(=O)(=O)N[C@H](CO)C(C)C)cc1
 : 2	17	2
- COc1cc(OC)cc(-c2c(Sc3ccccc3)c3cc(-c4ccc(OC)nc4)ccc3n2C)c1
 : 2	1	1
- O=C1NC(c2ccccc2)C(c2ccccc2)N1 (stereo not drawn)
 : 1	1	1
- COCC1CCN(C(=O)c2cc(COc3ccc(F)cc3Cl)on2)C1 (stereo not drawn)
 : -1	-16	0
- O=C1/C(=C/c2ccccc2)CCc2ccc(Cl)nc21
 : 2	-8	-4
- O=C(C[C@H]1CC[C@H](NC(=O)C2CCOCC2)[C@@H](CO)O1)NCc1ccncc1
 : 9	12	7
- NS(=O)(=O)c1ccc(N2CCN(C(=O)C3COc4ccccc4O3)CC2)nc1 (stereo not drawn)
 : 0	3	0
- CC(C)C[C@@H](CN1CCC[C@H]1CN1C(=O)C(=O)NC[C@@H]1Cc1ccc(O)cc1)N1C[C@H](Cc2ccc(O)cc2)N(CC2CCCCC2)C(=O)C1=O
 : 3	-59	5
- CCCCNC(=O)C1c2ccccc2OCC(=O)N1CCc1c[nH]c2ccccc12 (stereo not drawn)
 : 0	-61	3
- c1ccc(-c2nnc3nc(N4CCCCC4)nc(N4CCCCC4)n23)cc1
 : 0	-3	-1
- CCOC(=O)N1CCN(C(=O)C[C@@H]2C[C@@]3(C(=O)OCC)CCC=C3N(CCC3=CCCCC3)C2=O)CC1
 : 5	14	0
- CSc1nc2c(=S)[nH]c(=S)[nH]c2s1
 : 0	6	4
- O=C(NC1CCCCC1)C(c1cccc2ccccc12)n1c(=O)c(-c2ccco2)nc2ccccc21 (stereo not drawn)
 : -12	28	1
- CCN(N=O)c1ccc(C=C2C=Cc3ccccc32)cc1
 : 4	-348	-10
- CCCCCCN1CCN(C2CN(Cc3cn(Cc4ccccc4)nn3)S(=O)(=O)C2)CC1 (stereo not drawn)
 : 6	-12	0
- COC(=O)c1c(N)[nH]c(C(=O)c2ccccc2)c1-c1ccccc1Br
 : 2	12	-5
- CCOc1ccccc1N(CC(=O)NCCc1ccc(OC)cc1)S(=O)(=O)c1ccc(C)cc1
 : 3	9	-6
- CCOC(=O)c1cc([N+](=O)[O-])cc([N+](=O)[O-])c1Sc1ncnc2nc[nH]c12
 : 28	-13	13
- COc1ccc(C=Cc2ccc3ccccc3n2)c(OC)c1
 : -2	-429	-4
- c1ccc(N2CC3COc4ccccc4C3=N2)cc1 (stereo not drawn)
 : -4	-74	3
- O=C(CCC(C(=O)O)N1C(=O)c2ccccc2C1=O)Nc1ccccc1 (stereo not drawn)
 : -4	8	0
- O=C(NCc1ccccc1)C1C(=O)Nc2ccccc2C(=O)N1c1ccc2c(c1)OCCO2 (stereo not drawn)
 : -5	-36	4
- O=C1NC[C@H](CCCCN2C[C@H](Cc3ccc(O)cc3)N(CC3CCCCC3)C(=O)C2=O)N(CC2CCCCC2)C1=O
 : 7	-41	7
- O=S1(=O)CC(N2CCCCC2)CN1Cc1cn(Cc2ccc(Cl)cc2)nn1 (stereo not drawn)
 : 8	3	8
